Tb PFK inh: inhibitors of T. brucei phosphofructokinase; AID 485367; Potency, µM (highest dose often 57.5 µM), inactives show at the highest dose activity, negative = inhibition, actives largely listed as inhibitors; O15648; hit rate 0.17% among 330,000; T. brucei PFK, ADP-Glo luminescence;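 also: potency is read from the fitted curve at half-maximal effect; 0% = uninhibited 1x PFK enzyme wells and -100% = no-enzyme wells; nearly all actives have a fitted effect of over 60% in size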
Target sequence (O15648 whole entry, looked up): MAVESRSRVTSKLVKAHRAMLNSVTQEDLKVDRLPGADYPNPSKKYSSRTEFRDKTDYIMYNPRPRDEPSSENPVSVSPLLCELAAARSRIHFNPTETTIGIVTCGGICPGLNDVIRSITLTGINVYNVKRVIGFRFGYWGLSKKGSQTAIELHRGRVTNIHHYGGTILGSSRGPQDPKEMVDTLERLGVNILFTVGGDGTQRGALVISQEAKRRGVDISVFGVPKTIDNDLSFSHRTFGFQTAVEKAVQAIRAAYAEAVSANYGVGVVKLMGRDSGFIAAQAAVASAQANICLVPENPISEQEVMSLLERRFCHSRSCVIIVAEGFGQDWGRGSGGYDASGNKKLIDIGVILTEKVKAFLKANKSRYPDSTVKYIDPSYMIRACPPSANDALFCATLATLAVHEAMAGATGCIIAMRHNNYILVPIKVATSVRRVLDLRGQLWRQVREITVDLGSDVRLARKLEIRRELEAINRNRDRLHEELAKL
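Compounds were pin-transferred as a titration series up to 57 uM into substrate buffer (0.5 mM F6P, 0.1 mM ATP, pH 8.0), then 1.25 nM PFK was added and reactions ran 45 min before ADP-Glo detection.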
Giardia kill: Giardia lamblia killing; activity change, % at 7.66 µM, hits read low; hit rate 0.15% among 340,000; Giardia lamblia trophozoite viability; in the data active = activity change below about -80%; inconclusive = between about -30% and that limit;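 also: parasites exposed to compound for two days anaerobically before the ATP read; % is scaled to controls: 0 for no effect and ±100 for the full control effect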
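Media and compound were dispensed first, then trophozoites at 100 cells/well; plates sat 48 hrs at 37 deg C without oxygen before ATP luminescence reagent was added and read after 15-30 min at room temperature.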
ELG1 genotox: induces genotoxicity in HEK293T cells with luciferase-tagged ELG1; hit rate 1.3% among 330,000; HEK293T ELG1-luciferase reporter, luminescence, 16 h; Potency, µM (highest dose often 46 µM), for inactives: at the top dose activity change, positive = activation, hits mostly activators; AID 504466; also: potency is read from the fitted curve at half-maximal effect; % of control where 0% means no effect; nearly all actives have a fitted effect of over 60% in size
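HEK293T cells expressing luciferase-tagged ELG1 were treated with compound or DMSO for 16 hr at 37°C. Luciferase activity was then read after 30 min with ONE-Glo at room temperature; rising signal flags genetic stress.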
FBPA coupling cs: coupling enzyme interference in Giardia aldolase counter-screen; coupling enzyme system counterscreen, AmpLite Red fluorescence; activity change, negative = inhibition, % at 58.2 µM, hits read low; hit rate 0.67% among 290,000; in the data active = activity change below about -30%; also: % is scaled to controls: 0 for no effect and ±100 for the full control effect
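Counterscreen of the coupled detection system alone, without aldolase: glyceraldehyde-3-phosphate coupling enzymes plus AmpLite Red readout. Compounds at 57.5 uM final, 10 min RT preincubation, 20 min RT reaction, fluorescence 525/598 nm.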
uPA surface inh: inhibitors of cell surface uPA generation; hit rate 0.31% among 330,000; cell surface uPA generation assay, qHTS; AID 540303; Potency, µM (top dose mostly 38.3 µM), without a hit: at the top dose activity change, negative = inhibition, actives largely listed as inhibitors; active = well fitted inhibition curve with a large enough effect; inconclusive = small, poorly fitted or top-dose-only effect; inactive = no such curve, though single readings can be large or run the other way; tested in mouse RAW 264.7 cells; also: potency is read from the fitted curve at half-maximal effect; % is scaled to controls: 0 for no effect and ±100 for the full control effect; nearly all actives have a fitted effect of over 55% in size
An asterisk follows results filed as active; ? = inconclusive; nt = no result given; & = joins results of further samples; [ ] = dose if it differs, or a comment. Unless noted, calls follow the shape of the dose curve; as a rule, active = well fitted curve in the direction sought with a large enough effect; inconclusive = small, poorly fitted or top-dose-only effect, or another doubt; inactive = no such curve, though single readings can be large; an effect the other way counts as inactive or inconclusive.

Start of the listing, in advance:
SMILES | Tb PFK inh | Giardia kill | ELG1 genotox | FBPA coupling cs | uPA surface inh
CC(=O)OCC(=O)[C@@]1(O)CC[C@H]2[C@@H]3CCC4=CC(=O)C=C[C@]4(C)[C@H]3[C@@H](O)C[C@@]21C | -1% | 10 | 10% | 2 | -19%
Cc1cnc(C(=O)NCCc2ccc(S(=O)(=O)NC(=O)NC3CCCCC3)cc2)cn1 | 4% | -5 | 0% | 6&0 | -7%
CN(C)CCN(Cc1cccs1)c1ccccn1 | -2% | 20 | -1% | 0&3&4 | -8%
O=C(O)COCCN1CCN([C@@H](c2ccccc2)c2ccc(Cl)cc2)CC1 | nt | nt | nt | 4 | nt

The list itself, from the start:
SMILES | Tb PFK inh | Giardia kill | ELG1 genotox | FBPA coupling cs | uPA surface inh
CC(=O)OCC(=O)[C@@]1(O)CC[C@H]2[C@@H]3CCC4=CC(=O)C=C[C@]4(C)[C@H]3[C@@H](O)C[C@@]21C | -1% | 10 | 10% | 2 | -19%
Cc1cnc(C(=O)NCCc2ccc(S(=O)(=O)NC(=O)NC3CCCCC3)cc2)cn1 | 4% | -5 | 0% | 6&0 | -7%
CN(C)CCN(Cc1cccs1)c1ccccn1 | -2% | 20 | -1% | 0&3&4 | -8%
O=C(O)COCCN1CCN([C@@H](c2ccccc2)c2ccc(Cl)cc2)CC1 | nt | nt | nt | 4 | nt
CC1(C)S[C@H]2[C@@H](NC(=O)C(N)c3ccccc3)C(=O)N2[C@H]1C(=O)O (stereo not given in full) | nt | nt | nt | 1 | nt
COCCCC/C(=N\OCCN)c1ccc(C(F)(F)F)cc1 | 0%&-1%&-3%&-18% | -23&11&10&-3&-9 | 1%&13%&-4% | 0&-1&0 | ?
CCCNCC(O)COc1ccccc1C(=O)CCc1ccccc1 (stereo not given) | 7% | 34[activator] | -3% | 0&0 | -4%
CC(C)[N+]1(C)[C@@H]2CC[C@H]1CC(OC(=O)C(CO)c1ccccc1)C2 (stereo not given in full) | -1%&-7%&-6% | 6&-6&15 | 2%&0%&-7% | 2 | -4%&5%&-14%

Arranged by length of the SMILES (smallest number first): 3 of the compounds above.
SMILES | Tb PFK inh | Giardia kill | ELG1 genotox | FBPA coupling cs | uPA surface inh
CN(C)CCN(Cc1cccs1)c1ccccn1 | -2% | 20 | -1% | 0&3&4 | -8%
Cc1cnc(C(=O)NCCc2ccc(S(=O)(=O)NC(=O)NC3CCCCC3)cc2)cn1 | 4% | -5 | 0% | 6&0 | -7%
CC(=O)OCC(=O)[C@@]1(O)CC[C@H]2[C@@H]3CCC4=CC(=O)C=C[C@]4(C)[C@H]3[C@@H](O)C[C@@]21C | -1% | 10 | 10% | 2 | -19%

Source: PubChem BioAssay (National Center for Advancing Translational Sciences (NCATS))

Not all compounds are listed; count on the stated rates, not on these rows.
